# rRNA inh HTS: inhibits bacterial ribosomal RNA function over humanized ribosomes. E. coli WT GFP vs humanized-ribosome RFP mutants, fluorescence, 24 h; hits give low values; DMSO median 0, no signal -100. GFP signal change (wild-type ribosome), % (test concentration not listed). 350,000 tested, 1.6% active;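 active = significant combined selectivity score with lowered wild-type GFP, culture density cut under 30%, mutant RFP and density less affected; inactive = any of these conditions unmet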; note: one replicate is shown; some compounds called inactive have numbers as strong as hits
# Calb FLC: affects C. albicans growth with fluconazole; C. albicans CaCi-2 (fluconazole-resistant clinical isolate) + fluconazole, Alamar Blue growth, 48 h; growth inhibition, % (concentration not given with the values); 300,000 tested, 0.57% active; AID 1979;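 active = most replicates above 75%; inconclusive = exactly half above 75%; inactive = most below 75%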;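 note: all wells also contain fluconazole at 8 µg/ml as a sub-toxic cotreatment; 0% = median of DMSO wells and 100% = median of geldanamycin control wells; wells of about 8 µL received 7.5 nL stock; the first replicate is given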
# Bfl-1 A1 inh: inhibitors of the anti-apoptotic protein A1, read as caspase activation; MEF A1-2A-BIM cells, Caspase-Glo 3/7 luminescence, 3 h; percent of clofoctol response, vehicle zero; caspase activation, % (concentration not given with the values); 330,000 tested, 0.066% active;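 active = over half of replicate activation scores above 10%, or exactly half above 10 with the replicate mean above 10; inconclusive = replicate mean below 10 yet half the replicates above 10; inactive = over half of replicates below 10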;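 note: wells of about 30 µL received 50 nL stock; many hits fall short of the cut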
# Vif A3G: HIV-1 Vif–A3G interaction blockers – biochemical, TR-FRET, GST-Vif 1-94, biotin-A3G peptide, dose response retest, primary screen (AID 1117319) | one-dose inhibition, %; IC50 in µM for titrated hits | 260,000 tested, 0.57% active | TR-FRET GST-Vif / biotin-A3G peptide binding; higher % means a stronger effect; test concentration not given here; strong numbers were not always called active;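 active = above the screen mean plus three standard deviations and confirmed in dose response; inconclusive = results disagree or hit not tested in dose response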;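 note: Vif residues 1-94 fused to GST binding biotinylated APOBEC3G peptide 110-148; 0% = full assay without inhibitor and 100% = GST in place of GST-Vif; retest series ran down from 100 µM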
# AF4-AF9 inh: MLL-AF4/AF9 protein interaction inhibition; P42568; AlphaScreen, biotin-AF4 peptide binding to FLAG-AF9; inhibition, % at 10 µM; 350,000 tested, 0.47% active;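 active = every replicate reaching a set inhibition limit, whatever the replicate mean, cut at about 25% in these data; inconclusive = mean inhibition reaches that limit but some replicates miss it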;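 note: 0% = plate neutral control median and 100% = total signal loss; the record names both 10 and 1 µM as test concentration; the first replicate is given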
# Target sequence (P42568 whole entry, looked up): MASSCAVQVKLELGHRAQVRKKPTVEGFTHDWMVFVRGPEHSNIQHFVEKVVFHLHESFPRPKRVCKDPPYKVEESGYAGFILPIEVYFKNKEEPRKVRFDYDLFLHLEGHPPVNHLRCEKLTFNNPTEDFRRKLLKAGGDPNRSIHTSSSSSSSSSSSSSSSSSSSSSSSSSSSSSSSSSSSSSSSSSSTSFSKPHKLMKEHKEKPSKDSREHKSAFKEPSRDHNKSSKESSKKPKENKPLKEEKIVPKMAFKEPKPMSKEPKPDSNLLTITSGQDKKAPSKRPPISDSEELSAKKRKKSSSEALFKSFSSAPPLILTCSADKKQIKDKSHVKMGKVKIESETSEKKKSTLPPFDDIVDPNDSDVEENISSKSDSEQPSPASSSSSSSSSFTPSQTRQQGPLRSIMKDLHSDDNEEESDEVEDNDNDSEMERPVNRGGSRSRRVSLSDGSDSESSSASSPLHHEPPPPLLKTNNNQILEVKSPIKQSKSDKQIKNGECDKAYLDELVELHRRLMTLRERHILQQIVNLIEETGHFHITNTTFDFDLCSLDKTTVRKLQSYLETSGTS
# RanGTP-Impb inh: disruptors of Ran-importin-beta complex formation – biochemical, FRET, CFP-Ran, YFP-importin-beta, homogeneous, primary screen. cell-free CFP-Ran/YFP-importin-beta FRET ratio. inhibition, % (no concentration beside the values). 300,000 tested, 1.1% active. AID 2216;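 active = most replicates above 15%; inconclusive = exactly half above 15%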;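 note: 0% = DMSO wells and 100% = Ran loaded with GDP instead of GTP; wells of about 40 µL received 100 nL stock; the first replicate is given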
# Beta cell apopt: beta cell apoptosis inhibition. protection from apoptosis, % (no concentration beside the values). AID 435005. 300,000 tested, 0.8% active. INS-1E cytokine-induced death, ATP luminescence, 48 h; percent of positive-control rescue, neutral wells zero;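 active = all replicates at 75% or more, or half of them and the mean; inconclusive = half reach 75% but not the mean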;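 note: 0% = cytokine-treated negative control wells and 100% = positive control rescue; higher means more ATP so stronger rescue from cytokine killing; wells of about 40 µL received 100 nL stock; the first replicate is given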
# T cruzi inh: blocks replication of Trypanosoma cruzi. AID 1885. T. cruzi beta-gal in NIH3T3, luminescence, 90 h. inhibition, % (no concentration beside the values). 300,000 tested, 1.4% active;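 active = mean inhibition across valid replicates above about 55%, limit read from the data; inconclusive = mean below that limit but half or more replicates reach it; inactive = mean below it, under half of replicates reach it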;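 note: signal also drops with host cell toxicity which is not excluded here; 0% = plate median of DMSO wells and 100% = zero luminescence signal; higher percent means less beta-gal luminescence so fewer parasites; stock transfer was 50 nL into about 50 µL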
# rRNA inh HTS OD600: further read-out of rRNA inh HTS, marked with its call; OD600 change, %; measured here: OD600 growth;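 optical density of the mix in the first replicate; 0 = DMSO median and -100 = no signal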
# rRNA inh HTS RFP: also measured in rRNA inh HTS; calls as there; RFP signal change, %; measured here: RFP humanized mutant strains;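 first replicate; 0 = DMSO median and -100 = no signal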
# * = called active by the depositor; ? = inconclusive; nt = no result given; & = joins results of further samples. The list is partial; count on the stated rates, not on these rows.
SMILES,rRNA inh HTS,rRNA inh HTS OD600,rRNA inh HTS RFP,Calb FLC,Bfl-1 A1 inh,Vif A3G,AF4-AF9 inh,RanGTP-Impb inh,Beta cell apopt,T cruzi inh
N#Cc1c2n(c3c(=O)n(Cc4ccc(Cl)cc4)cnc13)CCCC2,nt,nt,nt,12,0.0,2%,nt,-0.2,-2,17
COCc1cc(C)nc(SCC(=O)NCc2ccco2)c1C#N,3,3,2.3,-8,0.2,0%,nt,-0.6,-2,-2
COc1ccccc1C(=O)NC(C)C(c1cccs1)N1CCOCC1 (stereo unspecified),-18,-11,-6.3,5,-0.3,8%,2.3,-0.5,-4,-10
O=C(CSc1ncn[nH]1)Nc1nc(-c2cccc([N+](=O)[O-])c2)cs1,-1,-2,-5.6,6,0.0,16%,-4.5,0.6,-2,10
O=C(Nc1ccccc1)Nc1cc(Cl)cc(Cl)c1,nt,nt,nt,-16,-0.5,2%,nt,-1.1,70,?
O=C(Cn1c(=O)n(CCc2c[nH]c3ccccc23)c(=O)c2cccnc21)Nc1ccccc1F,-4,9,-1.2,-6,0.9,19%,3.3,1.0,7,2
C=CCN1CC(C(=O)N2CCC(Cc3ccc(Cl)cc3)(C(=O)OCC)CC2)CC1=O (stereo unspecified),1,2,4.1,1,-0.6,22%,4.4,?,2,5
Cc1nnc(SCc2ccccc2)n(N)c1=O,nt,nt,nt,24,0.7,nt,nt,2.7,-1,-12
CCN(CC)C(=O)CSc1nc2c(sc(=S)n2-c2ccccc2)c(=O)n1-c1ccc(OC)cc1OC,-2,1,-0.5,58,-0.1,5%,4.7,1.6,nt,51
C=C1CC2C=C(NC(C)=O)CC(C1)C2 (stereo unspecified),11,11,-5.7,0,-0.2,4%,-1.9,-1.4,0,2
CC12CCC(C(=O)N(Cc3ccccc3)Cc3ccccc3)(OC1=O)C2(C)C (stereo unspecified),nt,nt,nt,-13,3.0,-3%,nt,1.4,-2,17
O=C(O)c1ccccc1C(=O)NCc1ccc(F)cc1,nt,nt,nt,-8,-0.2,0%,nt,0.1,-3,-8
CCOc1ccccc1NC(=O)C1CCN(C(=O)Cc2ccccc2)CC1,-4,-12,-0.7,0,0.6,11%,0.7,9.4,1,2
COc1cc(NC(=O)CSc2nc3ccccc3cc2C)c(C(=O)O)cc1OC,nt,nt,nt,2,1.9,nt,nt,3.0,-2,-24
CCOC(=O)NC(=O)c1cn(Nc2ccccc2)c(=O)[nH]c1=O,0,1,-0.4,-3,0.0,-2%,-11,1.3,-3,-14
C=CCc1cccc2cc(C(=O)NC3CCCC3)c(=O)oc12,-8,2,-5.6,9,-0.4,-5%,-1.8,0.9,-3,4
CC1CC(O)C(C)CN1 (stereo unspecified),0,11,6.3,-3,nt,-6%,nt,-0.2,nt,13
CCOC(=O)c1ccc(CNC(=O)c2cc(COc3ccccc3SC)on2)o1,-18,-10,-3.8,2,0.1,nt,-1.3,0.1,5,22
CC(C)CCSc1cc(NCCO)c([N+](=O)[O-])c2nonc12,-9,4,-0.6,-3,1.0,-2%,1.6,-2.2,3,3
CCCNc1ncccc1C(N)=O,nt,nt,nt,-6,1.6,13%,nt,4.2,-5,-1
CC(=O)/C(=C/c1ccc(N(C)C)cc1)C(=O)c1ccccc1,nt,nt,nt,-12,0.0,4%,nt,7.9,4,3
CC(C)(Oc1ccc(Cl)cc1)C(=O)Nc1ccc2oc(=O)ccc2c1,4,-31,-0.2,-1,0.9,nt,-4.8,-0.2,0,10
O=C(COc1ccccc1Br)c1ccc(O)cc1O,-42*,-24*,-14*,9,-0.1,-2%,-0.1,0.3,3,-20
Cc1ccc([N+](=O)[O-])cc1NC(=O)c1ccoc1C,nt,nt,nt,13,-0.8,2%,nt,0.2,1,-29
CSC1=N/C(=C\C=C\c2cccs2)C(=O)S1,nt,nt,nt,4,0.1,?,nt,-4.9,-3,-14
COc1cccc(NC(=O)COC(=O)c2c(-c3ccccc3)noc2C)c1,nt,nt,nt,-8,2.0,5%,nt,-0.5,-4,9
O=C(COC(=O)c1cc[n+]([O-])cc1)Nc1c(Cl)cccc1C(F)(F)F,5,11,0.2,0,-0.9,-4%,-2.6,2.0,nt,-2
O=C(O)CN1C(=O)Nc2ccc(Br)cc2C1c1ccccc1 (stereo unspecified),nt,nt,nt,6,-0.2,-6%,nt,5.3,-4,0
O=C(CSc1nc(Nc2ccccc2)nc(N2CCOCC2)n1)Nc1ccc([N+](=O)[O-])cc1,1,-2,-5.0,27,0.6,15%,-13,?,2,57*
COc1cccc(C(=O)OCC(=O)N2CCc3ccccc3C2)c1,-4,-16,1.9,nt,-0.1,5%,-2.5,nt,-4,nt
COc1cc(C)c(NC(=O)C2CCN(S(=O)(=O)c3cccs3)CC2)cc1OC,7,11,1.5,nt,2.8,nt,-0.5,nt,-2,nt
Cc1cc(C)c(S(C)(=O)=O)c(Oc2ccccc2C)n1,nt,nt,nt,-1,-0.8,3%,nt,2.5,-5,8
CCNC(=S)N1CCN(S(=O)(=O)c2ccc(C)c(C)c2)CC1,5,8,3.0,-9,1.1,-8%,1.7,-2.7,-6,-7
O=c1c2cc(Br)ccc2nc(-c2ccccc2)n1O,-4,-41,-0.4,100*,-8.6,nt,-0.8,3.7,1,-15
CC(/C=N/NC(=O)CSc1ccccn1)=C\c1ccc(C(C)C)cc1,-7,-22,5.2,3,-0.5,nt,13,-1.5,2,10
CN(C)/C=C1\C(=O)N(c2ccc(Cl)cc2)CS1(=O)=O,nt,nt,nt,-6,-1.6,-1%,nt,1.6,1,-7
COc1c(C)cc(C(=O)C2CCCN(C(=O)c3ccc4cc[nH]c4c3)C2)cc1C (stereo unspecified),-47,-76,-12,-44,-0.8,1%,1.1,11,0,17
Cc1ccc(C(=O)CCC(=O)Nc2ncccc2C)cc1,10,9,-0.7,nt,0.9,10%,0.1,nt,-3,nt
Cc1ccc(-n2ncc(C#N)c2/N=C/N2CCOCC2)cc1,nt,nt,nt,1,-0.4,22%,nt,-1.7,2,-7
Cc1cccc(C)c1NC(=O)CS(=O)CC(=O)N1CCN(c2ccccc2)CC1 (stereo unspecified),2,-4,-1.4,-3,4.0,nt,0.7,0.6,0,-7
COc1ccccc1CCc1nnc(CCC(=O)NC(C)Cc2cccc(C)n2)o1 (stereo unspecified),6,4,5.3,?,nt,3%,-16,0.8,nt,-4
CC1(c2ccc(NC(=O)c3ccccc3F)cc2)CC1(Cl)Cl (stereo unspecified),-5,-8,-0.9,-19,0.1,nt,1.0,-1.8,5,14
CN(C(=S)Nc1ccccc1)c1ccccc1,nt,nt,nt,1,-0.3,14%,nt,-3.7,nt,-13
N#Cc1c(-c2cccs2)cc(-c2cccnc2)nc1N,nt,nt,nt,31,-0.8,11%,nt,0.4,1,-7
CCNC(=S)N1CCN=C1Nc1nc(C)cc(C)n1,-6,0,-2.0,-4,0.6,?,-2.0,-1.1,-4,8
CCC1C=C(c2ccccc2)C=CN=C1N(CC)CC (stereo unspecified),10,9,-2.1,-9,0.0,nt,16,0.5,2,5
O=C(OCC#CCSc1nc2ccccc2o1)c1ccco1,-4,-20,0.7,-31,0.1,5%,nt,-1.3,-4,1
NC(=O)CC(NC(=O)OCc1ccccc1)C(=O)O (stereo unspecified),nt,nt,nt,-5,-0.4,-5%,nt,-3.1,-3,-4
O=S(=O)(c1ccc2[nH]c3c(c2c1)CCCC3)N1CCCCC1,-8,-24,4.1,-2,0.2,nt,-19,-6.4,0,1
CCn1c(COc2cccc(OC)c2)nnc1SCC(=O)NCC1CCCO1 (stereo unspecified),3,2,-1.2,11,0.5,nt,-1.5,1.6,-1,-10
Cn1c(=O)c2c(nc(N/N=C3\CCCc4ccccc43)n2Cc2ccc(F)cc2)n(C)c1=O,nt,nt,nt,6,-0.1,nt,nt,6.6,4,33
N#CC1(NC(=O)CSc2nncn2-c2ccccc2F)CCCC1,11,3,-1.6,nt,0.3,10%,0.1,nt,-5,nt
COc1cc(/C=N/NC(=S)Nc2cccc(C(=O)O)c2)ccc1O,7,2,-2.7,?,-4.9,nt,-6.5,-4.1,-12,-9
Cc1cc(C)cc(-n2nnnc2SCC(=O)Nc2cccc(NC(=O)c3ccco3)c2)c1,-11,-14,-8.4,3,-0.4,0%,nt,?,-3,-6
CCn1c2ccccc2c2cc(NC(=O)C(C)Oc3ccc(OC)cc3)ccc21 (stereo unspecified),nt,nt,nt,-4,0.2,0%,nt,2.1,3,7
CC12CN3CC(C)(CN(C1)C3c1ccc3c(c1)OCO3)C2O (stereo unspecified),6,-6,-5.0,0,0.3,nt,-33,-0.9,-4,12
COc1cccc(OC)c1C(=O)Nn1c(-c2cccs2)nc2ccccc2c1=O,-9,-13,-2.7,30,-0.4,nt,-4.1,-2.5,-5,-6
Cc1c(Cl)cccc1NC(CC(=O)c1ccccc1)C(=O)OCC(=O)c1cccs1 (stereo unspecified),nt,nt,nt,30,-0.2,nt,nt,1.2,-8,-22
Cc1c(C(=O)Nc2ccc(S(=O)(=O)Nc3ncccn3)cc2)oc2ccc(F)cc12,9,15,0.2,13,0.1,nt,-0.4,0.5,-4,-8
COc1ccc(C(c2nnnn2C2CCCC2)N2CCN(C3CCCC3)CC2)cc1OC (stereo unspecified),nt,nt,nt,7,0.8,4%&14%,nt,0.0,-11,11
# Further results follow:
SMILES,rRNA inh HTS,rRNA inh HTS OD600,rRNA inh HTS RFP,Calb FLC,Bfl-1 A1 inh,Vif A3G,AF4-AF9 inh,RanGTP-Impb inh,Beta cell apopt,T cruzi inh
CC(C)(C)NC(=O)COC(=O)c1c2c(nc3ccccc13)CCC2,0,3,0.9,1,0.1,nt,0.6,-2.8,1,0
COc1ccc2nc(NC3=NCCC3)sc2c1,nt,nt,nt,-1,0.9,24%,nt,-1.3,1,12
COc1ccc(S(=O)(=O)n2cnc3ccccc32)c(C)c1,5,-2,-12,2,1.6,5%,-2.1,3.6,nt,-1
CCCn1c(SCC(=O)Nc2cccc(C)n2)nnc1-c1ccco1,nt,nt,nt,-9,-0.2,-3%,nt,0.7,-30,8
Cc1ccc(NC(=O)CSc2nc3c(c(=O)[nH]2)CCC3)cc1C,-3,4,-1.5,-10,-1.2,0%,1.5,-2.6,-5,-5
CN(C(=O)COC(=O)c1cncc(Br)c1)C1CCS(=O)(=O)C1 (stereo unspecified),11,14,9.7,11,0.2,?,1.8,3.3,-5,-6
CC(C)CCN1C(=O)c2ccc(C(=O)Nc3ccccn3)cc2C1=O,-7,4,-5.1,15,0.1,-2%,2.4,0.0,-6,-4
COC(=O)c1cnn(-c2ccc(F)cc2F)c1/C=N/NC(=S)NC(C)(C)C,-26,-39,-5.3,23,0.4,0%,3.7,-0.4,-4,5
